Screening data from PubChem BioAssay.
BJeLR viab HTS – compounds reducing viability of BJeLR cells | BJeLR fibroblasts viability, CellTiterGlo ATP luminescence, 48 h; HRASV12, hTERT and SV40 LT/ST transformed | viability loss activity score, % (test concentration not listed) | hit rate 0.64% among 30,000 | AID 2275; in the data active = viability loss activity score above about 50%; about a fifth of its hits are not listed in these tables;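 note: higher score means fewer live cells and less ATP luminescence; stock transfer was 50 or 100 nL into about 30 µL; 0% = vehicle wells and 100% = a reference killing control; one replicate is shown; the record names a cut of 85%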
A1 inhib – A1 inhibition | MEF A1-2A-BIM cells, caspase-Glo luminescence, 3 h; percent of clofoctol signal, DMSO as zero | caspase activation, % (concentration not given with the values) | hit rate 0.51% among 21,000;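 active = most replicate scores above 10, or exactly half above 10 with mean activity above 10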;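 note: effector caspase 3 and 7 activity cleaving a DEVD luciferin substrate; 50 nL library stock added to about 30 µL; numbers are from one replicate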
Starred values were filed as active, the others as inactive; x = not tested or not shown. The list is partial; rates above refer to the full screens.

1	C[C@@H]1CN([C@@H](C)CO)C(=O)c2cccc(NS(C)(=O)=O)c2O[C@@H]1CN(C)CC1CC1
2	C[C@H]1CN([C@@H](C)CO)C(=O)c2cc(NC(=O)C3CCCCC3)ccc2O[C@@H]1CN(C)S(C)(=O)=O
3	O=c1oc2c(-c3cc(C(F)(F)F)ccc3Cl)cc(O)cc2s1
4	Cc1noc(C)c1S(=O)(=O)Nc1ccc2c(c1)C(=O)N([C@H](C)CO)C[C@@H](C)[C@H](CN(C)C(=O)Nc1ccc(F)cc1)O2
5	CCC(C)C(=O)NCCc1ccccc1 (stereo not given)
6	C[C@H](CO)N1C[C@H](C)[C@@H](CN(C)Cc2ccccc2)Oc2c(NS(C)(=O)=O)cccc2C1=O
assay / compound | 1 | 2 | 3 | 4 | 5 | 6
BJeLR viab HTS | -4.3 | 5.3 | 3.0 | 0.3 | 2.7 | -0.3
A1 inhib | x | -0.2 | 0.8 | -0.7 | 0.2 | x

7	C[C@@H]1CN([C@H](C)CO)C(=O)c2cc(NC(=O)Nc3ccccc3)ccc2O[C@H]1CN(C)S(=O)(=O)c1ccc(F)cc1
8	CCOC(=O)C1=C[C@@H](OC(CC)CC)[C@H](NC(C)=O)[C@@H](N)C1
9	Cc1ccc(S(=O)(=O)N2C=Cc3ccccc3C2c2c[nH]c3ccccc23)c(C)c1 (stereo not given)
10	C[C@H]1CN([C@@H](C)CO)C(=O)c2cccc(NC(=O)Nc3ccc4c(c3)OCO4)c2O[C@@H]1CN(C)C(=O)Nc1ccc2c(c1)OCO2
11	C[C@@H]1CN([C@H](C)CO)C(=O)c2cc(N(C)C)ccc2O[C@H]1CN(C)Cc1ccccc1
12	C[C@@H]1CN([C@H](C)CO)C(=O)c2cccc(NC(=O)c3nc4ccccc4s3)c2O[C@@H]1CN(C)Cc1ccc(Cl)c(Cl)c1
assay / compound | 7 | 8 | 9 | 10 | 11 | 12
BJeLR viab HTS | 2.8 | -2.7 | -4.3 | -5.9 | -1.3 | 1.5
A1 inhib | -0.3 | -0.2 | -0.2 | x | 0.5 | x

13	Cc1ccc(S(=O)(=O)Nc2cccc3c2O[C@@H](CN(C)S(=O)(=O)c2ccc(F)cc2)[C@H](C)CN([C@@H](C)CO)C3=O)cc1
14	C[C@H]1CN([C@@H](C)CO)C(=O)c2cccc(N(C)C)c2O[C@@H]1CN(C)S(=O)(=O)c1ccc(F)cc1
15	C[C@H](CO)N1C[C@H](C)[C@@H](CN(C)S(=O)(=O)c2ccc(F)cc2)Oc2ccc(NC(=O)C3CCCCC3)cc2C1=O
16	NC1=NC(=O)C(Cc2cccc(Cl)c2)S1 (stereo not given)
17	Cc1noc(C)c1S(=O)(=O)N(C)C[C@H]1Oc2ccc(NC(=O)CCCN(C)C)cc2C(=O)N([C@H](C)CO)C[C@@H]1C
18	Cc1ccc(S(=O)(=O)Nc2cccc3c2O[C@H](CN(C)C(=O)Nc2cccc4ccccc24)[C@@H](C)CN([C@H](C)CO)C3=O)cc1
assay / compound | 13 | 14 | 15 | 16 | 17 | 18
BJeLR viab HTS | -0.6 | -3.5 | -1.8 | -0.1 | -1.5 | -4.1
A1 inhib | x | x | 1.2 | x | x | x

19	O=C(Cn1c(=O)c2cccn2c2ccccc21)NCc1ccccc1
20	CCOc1ccc(-c2nnc(Nc3ccc(OC)cc3)c3ccccc23)cc1
21	C[C@H]1CN([C@@H](C)CO)C(=O)c2cccc(NC(=O)C3CCOCC3)c2O[C@H]1CN(C)Cc1ccc2c(c1)OCO2
22	C[C@@H]1CN([C@H](C)CO)C(=O)c2cccc(NS(=O)(=O)c3ccccc3)c2O[C@@H]1CN(C)C(=O)Nc1cccc2ccccc12
23	Cc1c(C(=O)CSc2n[nH]c(=O)n2C2CC2)sc2ccc(Cl)cc12
24	CC1CCC(C(=O)NC(Cc2c[nH]c3ccccc23)C(=O)NC2CCCCC2C)CC1 (stereo not given)
assay / compound | 19 | 20 | 21 | 22 | 23 | 24
BJeLR viab HTS | -2.2 | -3.2 | 1.1 | 1.1 | -2.3 | 2.1
A1 inhib | 1.1 | 1.4 | x | x | -0.6 | x

25	CC(C)(C)NC(=O)N1CCN(c2ccc(C#N)cn2)CC1
26	C[C@@H]1CN([C@@H](C)CO)C(=O)c2cccc(NC(=O)Nc3ccc4c(c3)OCO4)c2O[C@H]1CN(C)C(=O)Nc1cccc2ccccc12
27	C[C@H](CO)N1C[C@H](C)[C@H](CN(C)CC2CCCCC2)Oc2c(NS(C)(=O)=O)cccc2C1=O
28	C[C@H]1CN([C@@H](C)CO)C(=O)c2cc(NC(=O)Nc3ccc4c(c3)OCO4)ccc2O[C@@H]1CN(C)Cc1ccncc1
29	C[C@H](CO)N1C[C@H](C)[C@H](CN(C)C)Oc2ccc(NC(=O)Cc3ccccc3)cc2C1=O
30	C[C@@H]1CN([C@H](C)CO)C(=O)c2cccc(NS(=O)(=O)c3ccc(Cl)cc3)c2O[C@H]1CN(C)CC1CC1
assay / compound | 25 | 26 | 27 | 28 | 29 | 30
BJeLR viab HTS | -6.6 | -2.3 | -2.4 | -4.6 | -0.6 | -0.2
A1 inhib | 0.9 | x | x | -0.5 | 0.5 | x

31	COc1ccc(S(=O)(=O)N(C)C[C@H]2Oc3ccc(N(C)C)cc3C(=O)N([C@H](C)CO)C[C@@H]2C)cc1
32	Cc1noc(C)c1NC(=O)Nc1cccc2c1O[C@H](CN(C)C(=O)Nc1ccccc1)[C@H](C)CN([C@H](C)CO)C2=O
33	CCC(=O)Nc1sc(Cc2ccccc2)c(C)c1C(=O)OC
34	Cc1noc2ncnc(SCc3ccc(Cl)cc3)c12
35	CC(C)c1cc(CN2CCN(c3ccccc3)CC2)c(O)c(CN2CCN(c3ccccc3)CC2)c1
36	C[C@H]1CN([C@@H](C)CO)C(=O)c2cc(NS(=O)(=O)c3ccccc3)ccc2O[C@@H]1CN(C)C(=O)Nc1ccc(F)cc1
assay / compound | 31 | 32 | 33 | 34 | 35 | 36
BJeLR viab HTS | 4.0 | -3.2 | -11 | 3.1 | 1.2 | 2.2
A1 inhib | -0.4 | x | -0.5 | -0.5 | -0.4 | 0.1

37	C[C@H](CO)N1C[C@H](C)[C@@H](CN(C)S(=O)(=O)c2cccs2)Oc2ccc(NC(=O)C3CC3)cc2C1=O
38	C[C@@H]1CN([C@H](C)CO)C(=O)c2cc(NC(=O)NC3CCCCC3)ccc2O[C@@H]1CN(C)Cc1ccc(C(=O)O)cc1
39	Cc1cccc(C2=NC(C(F)(F)F)(C(F)(F)F)c3c(n(C)c(=O)n(C)c3=O)N2)c1
40	COc1ccc(C(=O)Nc2ccc(-c3nc4cc(C)cc(C)c4o3)cc2)cc1OC
41	COc1ccc(C(C(=O)OCCN(C)C)c2ccccc2)cc1 (stereo not given)
42	CC(C)NC(=O)N(C)C[C@@H]1Oc2c(NC(=O)c3ccncc3)cccc2C(=O)N([C@@H](C)CO)C[C@@H]1C
assay / compound | 37 | 38 | 39 | 40 | 41 | 42
BJeLR viab HTS | 2.8 | -3.5 | 0.7 | -0.1 | 0.0 | 4.3
A1 inhib | 0.8 | -0.5 | -0.9 | -0.6 | 0.0 | x

43	O=C(CC12CC3CC(CC(C3)C1)C2)Nc1ccc2c(c1)COC2=O
44	COc1ccc(CCn2cnc3sc4c(c3c2=N)CCCC4)cc1OC
45	CCCCC/C=C\C/C=C\C/C=C\CCCCC(=O)O
46	C[C@@H]1CN([C@H](C)CO)C(=O)c2cc(NC(=O)CCN3CCOCC3)ccc2O[C@@H]1CN(C)Cc1ccccc1
47	OC(CCN1CCCCC1)(c1ccccc1)C1C[C@@H]2C=C[C@H]1C2 (stereo not given in full)
48	COc1ccc2cc1/C=C\NC(=O)C(Cc1ccccc1)NC(=O)C1C(CCN1C(=O)C(NC(=O)C(C)N(C)C)C(C)C)O2 (stereo not given)
assay / compound | 43 | 44 | 45 | 46 | 47 | 48
BJeLR viab HTS | 3.0 | 2.0 | -2.8 | 0.8 | 2.4 | 0.5
A1 inhib | x | 0.0 | 0.1 | 0.5 | -0.3 | 0.0

49	CCOc1ccccc1NC(=O)N1CCCN(c2ncccc2C#N)CC1
50	Nc1cc(=O)[nH]c(S/C=C/c2ccccc2)n1
51	COc1cc(CCO)ccc1O[C@@H]1O[C@H](CO)[C@@H](O)[C@H](O)[C@H]1O
52	CC(C)NC(=O)Nc1cccc2c1O[C@H](CN(C)Cc1ccc3c(c1)OCO3)[C@@H](C)CN([C@H](C)CO)C2=O
53	CCCn1c(=O)c(C#N)cn(C2CC2)c1=O
54	Cc1ccc(C(=O)NCCc2nnc3ccc(SCC(=O)NC4CCCCC4)nn23)cc1
assay / compound | 49 | 50 | 51 | 52 | 53 | 54
BJeLR viab HTS | -0.9 | 12 | -4.8 | -5.1 | 4.3 | 2.7
A1 inhib | x | -8.2 | -0.2 | x | -0.1 | 1.3

55	CC(C)c1ccc(-c2csc3ncn(N)c(=O)c23)cc1
56	COc1ccccc1CNc1ccc2c(c1)ncn2-c1ccccc1OC
57	CCOC(=O)c1cc(C)sc1/N=C/C1C(=O)CCCC1=O
58	COc1cccc(N2C(=S)NC3c4ccccc4OC2(C)C3C)c1 (stereo not given)
59	COC(=O)C1=CN(c2ccc(F)cc2)C=C(C(=O)OC)C1c1cccc(O)c1
60	Cc1c(S(=O)(=O)c2ccc(Cl)cc2)csc1C(=O)N(c1ccccc1)S(C)=O (stereo not given)
assay / compound | 55 | 56 | 57 | 58 | 59 | 60
BJeLR viab HTS | -1.0 | -1.8 | 4.7 | 3.9 | 3.2 | 7.9
A1 inhib | -0.1 | -0.1 | x | x | -0.5 | -0.6

By substructure, the entries above containing a thiophene ring, fused or not.
23	Cc1c(C(=O)CSc2n[nH]c(=O)n2C2CC2)sc2ccc(Cl)cc12
33	CCC(=O)Nc1sc(Cc2ccccc2)c(C)c1C(=O)OC
37	C[C@H](CO)N1C[C@H](C)[C@@H](CN(C)S(=O)(=O)c2cccs2)Oc2ccc(NC(=O)C3CC3)cc2C1=O
44	COc1ccc(CCn2cnc3sc4c(c3c2=N)CCCC4)cc1OC
55	CC(C)c1ccc(-c2csc3ncn(N)c(=O)c23)cc1
57	CCOC(=O)c1cc(C)sc1/N=C/C1C(=O)CCCC1=O
60	Cc1c(S(=O)(=O)c2ccc(Cl)cc2)csc1C(=O)N(c1ccccc1)S(C)=O (stereo not given)
assay / compound | 23 | 33 | 37 | 44 | 55 | 57 | 60
BJeLR viab HTS | -2.3 | -11 | 2.8 | 2.0 | -1.0 | 4.7 | 7.9
A1 inhib | -0.6 | -0.5 | 0.8 | 0.0 | -0.1 | x | -0.6

New compounds follow
61	CC(C)(C)c1nnc(-c2ccc(Oc3cc(Cl)cc(Cl)c3)o2)o1
62	C[C@H](CO)N1C[C@H](C)[C@H](CN(C)Cc2ccncc2)Oc2ccc(NC(=O)Nc3cccc4ccccc34)cc2C1=O
63	S=C(NCc1ccccc1)N1CCn2c(nc3ccccc32)C1
64	Cc1ccc(S(=O)(=O)Nc2ccc3c(c2)C(=O)N([C@H](C)CO)C[C@H](C)[C@H](CN(C)C(=O)Nc2c(C)noc2C)O3)cc1
65	O=c1oc2ccc3ccccc3c2c2c1SC(C(F)(F)F)C2 (stereo not given)
66	C[C@@H]1CN([C@@H](C)CO)C(=O)c2cc(NS(=O)(=O)c3cn(C)cn3)ccc2O[C@@H]1CN(C)Cc1ccncc1
assay / compound | 61 | 62 | 63 | 64 | 65 | 66
BJeLR viab HTS | 7.0 | 3.1 | 1.9 | 7.7 | 2.7 | 2.6
A1 inhib | 0.5 | 0.1 | x | -0.6 | -0.6 | -0.2

67	O=C(Cc1ccccc1)NC1CCN(C(=O)c2ccco2)CC1
68	CCOC(=O)c1ccc(N2C(=O)C(Oc3ccccc3)C2c2ccc(OCC)cc2)cc1 (stereo not given)
69	NC(=O)c1sc2nc(-c3ccccc3)ccc2c1N
70	COc1cc(C(O)CCOC2OC(CO)C(O)C(O)C2O)cc2cc(-c3ccc4c(c3)OCO4)oc12 (stereo not given)
71	Cc1ccc(S(=O)(=O)Nc2ccc3c(c2)C(=O)N([C@H](C)CO)C[C@H](C)[C@@H](CN(C)Cc2ccc(Cl)c(Cl)c2)O3)cc1
72	FC(F)(F)c1ccc(-c2nnc(SCc3ccncc3)n2Cc2ccco2)cc1
assay / compound | 67 | 68 | 69 | 70 | 71 | 72
BJeLR viab HTS | 1.0 | 4.2 | -2.1 | -1.9 | 0.1 | -1.5
A1 inhib | -0.7 | 1.4 | -2.6 | -0.4 | 0.2 | -0.3

73	O=C(NCc1ccsc1)c1ccc2c(c1)OCCCO2
74	O=C(O)c1c(CNCCc2c[nH]c3ccccc23)c2ccccc2n1Cc1ccccc1
75	C[C@H](CO)N1C[C@H](C)[C@H](CN(C)C(=O)NC2CCCCC2)Oc2c(NS(=O)(=O)c3cccs3)cccc2C1=O
76	C[C@H]1CN([C@@H](C)CO)C(=O)c2cc(NC(=O)C3CC3)ccc2O[C@@H]1CN(C)C(=O)Nc1ccc(C(F)(F)F)cc1
77	C[C@H](CO)N1C[C@H](C)[C@H](CN(C)Cc2ccc(C(=O)O)cc2)Oc2ccc(NC(=O)Nc3cccc4ccccc34)cc2C1=O
assay / compound | 73 | 74 | 75 | 76 | 77
BJeLR viab HTS | 0.8 | -6.6 | 2.2 | 3.5 | 3.7
A1 inhib | -1.0 | x | x | 0.6 | -0.1
